# Screening results as filed in PubChem.
# KCNQ2 inh: KCNQ2 potassium channel inhibitors, primary screen, cell-based, CHO-K1, FluxOR thallium flux, B-score (AID 2156). hit rate 1.1% among 310,000. 20 min; stronger effect = lower value; only compounds with negative scores are shown here; some inactives read as strong as hits. B-score at 10 µM;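 active = fluorescence ratio B-score at most minus 3 library SDs, with starting brightness B-score within 2 library SDs, cut at about -5.5 in these data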
# Target sequence (O88943 whole entry, looked up): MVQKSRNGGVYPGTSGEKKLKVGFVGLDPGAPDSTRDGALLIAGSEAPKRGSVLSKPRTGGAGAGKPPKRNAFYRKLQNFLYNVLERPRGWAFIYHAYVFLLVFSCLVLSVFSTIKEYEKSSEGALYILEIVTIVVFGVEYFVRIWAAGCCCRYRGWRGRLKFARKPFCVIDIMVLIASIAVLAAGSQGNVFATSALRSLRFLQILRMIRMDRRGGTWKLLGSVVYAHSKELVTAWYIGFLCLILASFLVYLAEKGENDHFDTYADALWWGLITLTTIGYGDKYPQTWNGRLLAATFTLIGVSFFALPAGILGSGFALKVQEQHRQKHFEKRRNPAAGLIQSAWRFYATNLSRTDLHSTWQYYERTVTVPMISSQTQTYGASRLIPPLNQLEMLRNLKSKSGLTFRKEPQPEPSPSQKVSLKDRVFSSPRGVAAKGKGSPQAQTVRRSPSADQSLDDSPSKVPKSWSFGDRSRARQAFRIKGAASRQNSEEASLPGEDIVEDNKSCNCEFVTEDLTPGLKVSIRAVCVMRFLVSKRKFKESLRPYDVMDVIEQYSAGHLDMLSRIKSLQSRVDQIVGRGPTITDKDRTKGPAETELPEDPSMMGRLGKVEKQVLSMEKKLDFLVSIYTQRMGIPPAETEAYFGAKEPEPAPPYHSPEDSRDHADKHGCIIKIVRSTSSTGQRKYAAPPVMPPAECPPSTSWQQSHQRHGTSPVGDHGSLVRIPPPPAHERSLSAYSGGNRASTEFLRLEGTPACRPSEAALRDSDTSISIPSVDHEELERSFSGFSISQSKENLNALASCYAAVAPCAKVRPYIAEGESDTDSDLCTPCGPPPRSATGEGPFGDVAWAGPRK
# KCNQ2 inh baseline: recorded beside KCNQ2 inh, whose call it bears; B-score; measured here: initial fluorescence intensity artifact check;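 brightness before thallium and not channel activity; 0 = typical well and far values either way flag optical interference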
# * hit, by the source's call; i = inactive. Some of the compounds tested; the hit share may differ from the screen's.
# Values in the order: KCNQ2 inh baseline | KCNQ2 inh
COc1ccc(/C=C/C(=O)NC(=S)Nc2cc([N+](=O)[O-])ccc2O)cc1OC
→ 0.25 | i
Cc1ccccc1CN1C(=O)CSc2ccc(C(=O)N3CCOCC3)cc21
→ 0.77 | i
O=c1c2cc(N3CCOCC3)ccc2[nH]c(=S)n1CCCN1CCCCCC1
→ -0.16 | i
Cc1ccc(C(=O)OC(C)C(=O)NC2CCCCC2C)cc1S(=O)(=O)N1CCCCC1 (stereo not drawn)
→ -0.01 | i
Cc1cc(NC(=O)COC(=O)CCNS(=O)(=O)c2ccccc2)n(-c2ccccc2)n1
→ 1.8 | i
COC(=O)c1ccc(C2/C(=C(\O)c3cccc(OC)c3)C(=O)C(=O)N2CCCN(C)C)cc1 (stereo not drawn)
→ -3 | i
CCCCN(C(=O)CN1CC(C)OC(C)C1)c1c(N)n(CC(C)C)c(=O)[nH]c1=O (stereo not drawn)
→ 1 | i
CCSc1nnc(Cn2c(=O)sc3ccccc32)n1-c1ccccc1C
→ -0.03 | i
CCC(C(=O)OC)n1cnc2c(nnn2-c2ccccc2)c1=O (stereo not drawn)
→ 1 | i
Oc1ccc(N=Nc2c(O)ccc3ccccc23)cc1
→ -0.61 | i
C#Cc1ccc([C@@H]2C=C(C(=O)N3CCN(Cc4ccc5c(c4)OCO5)CC3)O[C@H](OCCCCO)C2)cc1
→ -0.57 | i
COc1ccc(CC(NC(C)=O)C(=O)N2CCN(C(=O)Nc3cccc(F)c3)CC2)cc1OC (stereo not drawn)
→ 0.66 | i
O=C(OCCN1C(=O)c2ccccc2C1=O)c1cccs1
→ 0.04 | i
CC1CCCC(C)N1S(=O)(=O)c1ccc(S(=O)(=O)NCCc2ccncc2)cc1 (stereo not drawn)
→ -0.51 | i
COC(=O)c1ccc(Nc2nnc(-c3ccc(C)c(S(=O)(=O)NCC4CCCO4)c3)c3ccccc23)cc1 (stereo not drawn)
→ -0.02 | i
O=C(CSCc1ccc([N+](=O)[O-])cc1)N/N=C/c1cccnc1
→ -1.4 | i
CCCCn1c(N)c(N(CC(C)C)C(=O)c2cc(C)oc2C)c(=O)[nH]c1=O
→ 0.56 | i
CN(Cc1ccccc1)C(=O)c1cccnc1
→ -0.26 | i
COc1cccc(CN(C)c2nc(-c3cccs3)nc3ccccc23)c1
→ 0.72 | i
CCOc1ccccc1N1CC(C(=O)N(Cc2nnc(-c3ccccc3Cl)o2)C2CC2)CC1=O (stereo not drawn)
→ -0.32 | i
NC(=O)c1ccccc1O
→ -2.1 | i
Cc1ncc(CC(=O)n2cc(C(=O)c3cc(F)ccc3O)cn2)s1
→ 0.86 | i
CC(Sc1ccc(Br)cc1)C(N)=O (stereo not drawn)
→ 0.02 | i
COc1ccc(C(=O)COC(=O)C2CCC(=O)N2)cc1 (stereo not drawn)
→ 1.3 | i
O=C(CSc1n[nH]c(-c2ccncc2)n1)Nc1ccc(Br)cc1
→ -0.06 | i
Cc1ccc(NC(=O)CN(C)C(=O)CNC(=O)c2ccc3c(c2)OCO3)cc1
→ -0.52 | i
CCC(=O)N1CCCc2cc(S(=O)(=O)NCc3cccs3)ccc21
→ 1.1 | i
CCC(C)c1ccc(-c2cc(C(=O)OCC(=O)Nc3cc(C)on3)c3ccccc3n2)cc1 (stereo not drawn)
→ -0.3 | i
Cc1ccc(-c2nc3ccccc3c(=O)n2CCCN2CCOCC2)cc1
→ -1 | i
Cc1ccc(-c2c(C#N)c(N)nc3c2CCCC3)s1
→ -0.02 | i
O=C(NCc1ccc(Cl)cc1)c1cc(-c2cccs2)on1
→ 0.67 | i
CC1=C(C(=O)Nc2ccccc2F)C(c2ccsc2)C2=C(CC(C)(C)CC2=O)N1 (stereo not drawn)
→ 1.6 | i
Cc1cc(C)nc(N2CCCC(C(=O)Nc3cc(F)ccc3C)C2)n1 (stereo not drawn)
→ 0.25 | i
O=C(c1cccnc1)n1nc(NCc2ccccc2)nc1NCc1ccccc1
→ 0.42 | i
NS(=O)(=O)c1ccc(CCNC(=O)C2CCC(CNS(=O)(=O)c3ccc(Br)s3)CC2)cc1 (stereo not drawn)
→ -0.16 | i
CCCN1C(=O)C(NC(C)=O)c2ccccc21 (stereo not drawn)
→ 0.01 | i
Cc1ccc(C2N(c3ccccc3)C(=O)N3CCCN23)cc1 (stereo not drawn)
→ 3.4 | i
CC(C)N(Cc1nc(-c2ccccc2)no1)C(=O)C(C)(C)C
→ -0.09 | i
CCCCn1c(N)c(N(CCOC)C(=O)COC(=O)COc2c(C)cccc2C)c(=O)[nH]c1=O
→ -1.4 | i
Cc1ccc2nc(SCC(=O)N3c4ccccc4CC3C)c(C)cc2c1 (stereo not drawn)
→ -1.3 | i
COC(=O)c1ccc(COc2ccc(Cl)cc2)o1
→ -0.1 | i
CCC(Cc1ccccc1)NC(=O)C1CCC(CNc2c(N3CCCC3)c(=O)c2=O)CC1 (stereo not drawn)
→ 2.2 | i
COC(=O)c1sccc1NC(=O)Nc1cccc(Cl)c1Cl
→ 1.6 | i
O=C(c1cccs1)N1CCN=C1SCc1ccc(F)cc1
→ 0.38 | i
Cc1nc2ccccc2cc1OCc1ccccc1
→ 1.9 | i
NC(=O)CSc1nnc(-c2cnccn2)n1Cc1ccco1
→ -0.82 | i
O=C(Nc1ncn[nH]1)c1ccc(Cl)c(S(=O)(=O)Nc2ccc(Cl)cc2)c1
→ 0.2 | i
Nn1c(-c2ccccc2)nc2ccccc2c1=O
→ 0.38 | i
NC(=O)COc1ccc(C(=O)/C=C2/C(=O)Nc3ccccc32)cc1
→ 0.32 | i
Cc1[nH]c(=O)[nH]c(=O)c1CSc1nnc(CCCCCNC(=O)OC(C)(C)C)o1
→ 0.02 | i
COc1ccc(S(=O)(=O)Nc2ccc3c(c2)CCC3)cc1
→ -1.6 | i
Cc1ccc(S(=O)(=O)NCCCCCC(=O)Nc2cccc(C)c2)cc1
→ 1.4 | i
CCOC(=O)c1ccc(NC(=S)N2CCCC(C(=O)OCC)C2)cc1 (stereo not drawn)
→ 1.6 | i
Cc1ccc(NC(=O)C2=C(C(=O)O)CCCC2)cc1Br
→ -0.1 | i
Cc1cc(C(=O)CSc2nc3ccccc3[nH]2)c(C)n1C
→ 0.93 | i
COc1cc2c(cc1NS(=O)(=O)N1CCCC1)oc1ccccc12
→ -0.31 | i
CCCCCCOC(=O)c1ccc(N)cc1
→ -0.3 | i
COc1cccc(/C=C2\SC(=S)N(NC(=O)c3ccncc3)C2=O)c1
→ 0.51 | i
Cc1cccc(C(=O)OCC(=O)NCCCc2ccccc2)c1
→ 0.6 | i
O=C(NN1C(=O)c2ccccc2NC1c1ccccc1OCc1ccccc1)c1ccncc1 (stereo not drawn)
→ -3 | i

# Following part
# Values in the order: KCNQ2 inh baseline | KCNQ2 inh
COCCN1Cc2cc3cc(C)ccc3nc2SC1=Nc1cccc(OC)c1
→ -0.88 | i
Cc1cc(C)c2cc(CN(CCN3CCCC3)C(=O)Nc3ccc(F)cc3)c(=O)[nH]c2c1
→ 0.57 | i
Cc1cc2n(n1)C(c1ccc3c(c1)OCO3)Nc1c(C)cccc1-2 (stereo not drawn)
→ 0.02 | i
CC(C)OCCCN(CC(O)c1ccccc1)CC(O)c1ccccc1 (stereo not drawn)
→ 0.65 | i
COc1ccc(-n2c(Cc3cc(=O)[nH]c(=O)[nH]3)nnc2SCC(=O)Nc2ccccc2)cc1
→ 0.96 | i
CCOC(=O)c1c[nH]c2nc(C)ccc2c1=O
→ 0.01 | i
CN(C)c1ccc(P(=O)(COc2ccc([N+](=O)[O-])cc2)c2ccc(N(C)C)cc2)cc1
→ 0.02 | i
C=CCn1c(=O)/c(=C/c2ccc(C)o2)s/c1=C(/C#N)C(=O)c1ccccc1
→ 1.7 | i
O=C(Cn1cnc2ccccc21)Nc1ccccc1-c1ccccc1
→ -1 | i
COC(=O)[C@H](CCSC)NC(=O)Nc1ccc(OC)cc1OC
→ 0.76 | i
CC(C)n1c(SCC(=O)NCc2ccco2)nnc1C1CC1
→ 0.77 | i
CCn1ncc(Br)c1C(=O)Nc1ncc(C)s1
→ -0.19 | i
O=C(NNc1nc(N2CCOCC2)nc(N2CCOCC2)n1)Nc1ccc(Cl)cc1
→ 0.42 | i
CCn1c(CNS(=O)(=O)c2ccc(Br)cc2)n[nH]c1=S
→ -0.14 | i
O=C(Nc1cccc2ccccc12)N1CC=C(c2ccccc2)CC1
→ 0.02 | i
CNC(=O)c1ccsc1NC(=O)c1sc2ccccc2c1Cl
→ 0.84 | i
O=C1/C(=C/c2ccc(F)cc2)SC(=S)N1N1CCOCC1
→ -0.02 | i
COc1ccc(-c2cc(-c3ccccc3)nc(-c3ccc4c(c3)NC(=O)CO4)c2)cc1
→ -1.2 | i
Cc1ccc(C(=O)Nc2cccc(C(F)(F)F)c2)cc1Nc1ccccn1
→ -0.67 | i
CCN(CC)S(=O)(=O)c1ccc2oc(C(=O)NC3CCCc4ccccc43)c(C)c2c1 (stereo not drawn)
→ 0.05 | i

# Five compounds out of the list above, ordered by the number in KCNQ2 inh baseline, largest number first.
Compound	KCNQ2 inh baseline
C=CCn1c(=O)/c(=C/c2ccc(C)o2)s/c1=C(/C#N)C(=O)c1ccccc1	1.7
COC(=O)c1sccc1NC(=O)Nc1cccc(Cl)c1Cl	1.6
O=C(NCc1ccc(Cl)cc1)c1cc(-c2cccs2)on1	0.67
O=C(Nc1ncn[nH]1)c1ccc(Cl)c(S(=O)(=O)Nc2ccc(Cl)cc2)c1	0.2
Cc1cc2n(n1)C(c1ccc3c(c1)OCO3)Nc1c(C)cccc1-2 (stereo not drawn)	0.02

# Remaining list, next part.
# Values in the order: KCNQ2 inh baseline | KCNQ2 inh
COc1ccc(C(=O)NC(=S)Nc2cccnc2)cc1OC
→ 0.77 | i
CCCC(=O)OCCNc1cc(Sc2nc3ccccc3[nH]2)c2nonc2c1[N+](=O)[O-]
→ -3 | i
O=C(O)C1C(c2ccccc2)C(C(=O)OCc2ccco2)C1c1ccccc1 (stereo not drawn)
→ 1.6 | i
Cc1ccccc1NC(=O)CSCc1cc(=O)n2ccsc2n1
→ -0.94 | i
O=C(c1c(F)cccc1F)N1CCCc2ccccc21
→ 1 | i
COc1ccc(NC(=O)CN(C)C(=O)c2cc(CN3C(=O)c4ccccc4C3=O)ccc2OC)cc1
→ 0.85 | i
O=C(O)c1ccc2nc(-c3ccccc3)c(-c3ccccc3)nc2c1
→ -0.67 | i
Cc1cc(C(=O)OCC(=O)c2ccc(Br)s2)no1
→ -0.63 | i
Oc1ccc(O)c(Cc2nc3ccccc3s2)c1
→ -1* | -5.6*
CCCN(CC(=O)Nc1ccc(C(N)=O)cc1)CC(=O)Nc1ccc(F)c(F)c1F
→ -1.1 | i
Cn1c(N)c(C(=O)COC(=O)CCc2c[nH]c3ccccc23)c(=O)n(C)c1=O
→ 1 | i
COCCNc1nc(C(C)(C)C)nc2c1nnn2Cc1ccccc1Cl
→ -0.83 | i
Cc1cc(S(=O)(=O)N2CCN(c3ccc(F)cc3)CC2)c(C)s1
→ -0.2 | i
COc1c(C)cc(C(=O)C2CCCN(C(=O)c3cc(C)nc(C)n3)C2)cc1C (stereo not drawn)
→ -0.5 | i
CCOC(=O)COn1c(=O)c(-c2ccc(OC)cc2)[n+]([O-])c2ccccc21
→ 0.16 | i
CCCN(CCC)C(=O)Nc1cc(Cl)ccc1OC
→ 0.07 | i
O=C1CN(C(=O)COc2ccc(Br)cc2F)c2ccccc2N1
→ -1.8 | i
CCOc1ccccc1N1CCN(C(=O)c2c(-c3c(F)cccc3Cl)noc2C)CC1
→ -0.04 | i
O=C(NCCCN1CCCC1=O)c1cc(-c2cccnc2)nc2ccc(Cl)cc12
→ -0.01* | -6.5*
O=C1NC(c2cccc(Cl)c2)Oc2ccccc21 (stereo not drawn)
→ 2.2 | i
COCC(=O)Nc1cc(C)c2c(=O)oc3ccccc3c2n1
→ 0.06 | i
Cc1cccc(NC(=O)COC(=O)c2ccccc2-c2nc3ccccc3s2)c1C
→ -1.5 | i
O=C(c1cccnc1)c1ncc(C(F)(F)F)cc1Cl
→ -0.08 | i
O=C(Nc1ccc(Cl)cn1)c1cccc(S(=O)(=O)N2CCCCC2)c1
→ 0.05 | i
Cc1cc(=O)oc(C)c1C(=O)Nc1cccc(F)c1
→ 0.82 | i
CC(c1cccs1)N(C)Cc1nc(CCc2ccccc2)no1 (stereo not drawn)
→ 0.03 | i
CCN(CC)CCN1C(=O)C(=O)/C(=C(/O)c2c(C)[nH]c(C(=O)OC)c2C)C1c1cccs1 (stereo not drawn)
→ 0.84 | i
Cc1nc2ccccn2c1C(=O)NCC(C)C
→ 1.4 | i
CCOC(=O)C1CCN(C(=O)Cn2nc(C)n3cccc3c2=O)CC1
→ 1.7 | i
CCN1CCc2nc3ccccc3c(C(=O)Nc3ccc(F)cc3)c2C1
→ 2.2* | -9.4*
COc1ccc(C(=O)c2ccc([N+](=O)[O-])cc2)cc1S(=O)(=O)N1CCC(C(=O)O)CC1
→ -1.8 | i
O=C1Cc2ccccc2Sc2ccc(Cl)cc21
→ -0.06 | i
CC(=O)N(CC(=O)Nc1sc(C)c(C)c1C(N)=O)Cc1ccccc1
→ 1.4 | i
C=CCN1C(=O)C(Cc2ccc(OC)cc2)S/C1=N/N=C/c1ccco1 (stereo not drawn)
→ 2.7 | i
CCCN1C(=O)/C(=C/C=C2\N(CC)c3ccccc3C2(C)C)SC1=S
→ 0.22 | i
Cc1cc(Br)c(NC(=O)CN(C)CCOc2ccccc2)c(Br)c1
→ 0.05 | i
CNC(=O)N(C1=NCC(C)(C)S1)c1ccc(F)c(Cl)c1
→ 0.26 | i
COc1cccc(Oc2ccc(N)cn2)c1
→ 2.9 | i
CCc1nc(SCC(=O)Nc2cc(C)ccc2OC)c2c(C)c(C)sc2n1
→ 0.61* | -6.8*

# Part of the list above in another layout:
mol	KCNQ2 inh baseline	KCNQ2 inh
O=C(c1cccnc1)c1ncc(C(F)(F)F)cc1Cl	-0.08	i
CCOC(=O)C1CCN(C(=O)Cn2nc(C)n3cccc3c2=O)CC1	1.7	i
CC(c1cccs1)N(C)Cc1nc(CCc2ccccc2)no1 (stereo not drawn)	0.03	i
C=CCN1C(=O)C(Cc2ccc(OC)cc2)S/C1=N/N=C/c1ccco1 (stereo not drawn)	2.7	i
